# YB-1 expr inh: inhibitors of YB-1 gene expression, primary screen, cell-based, fluorescence | U2OS, qRT-PCR YB-1 vs CDIP delta delta Cp, 16 h; active compounds read high; zero = DMSO, each unit about twofold | delta delta Cp (YB-1 minus CDIP) (no concentration beside the values) | 0.37% of 30,000 active | AID 434959, 2010;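 active means delta delta Cp rounded down to an integer at or above 3, about 3 SD of DMSO wells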;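 further: higher means less YB-1 transcript or more CDIP transcript relative to DMSO; stock transfer was 100 nL into about 100 µL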
# Hedgehog inh: Hedgehog pathway signaling inhibitors, primary screen, luminescence, Shh-LIGHT2 cells, Gli-luciferase | Shh-LIGHT2 Gli-luciferase reporter, 30 h | inhibition, % (test concentration not listed) | 2.1% of 22,000 active | AID 2313, 2010;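 active means replicate mean of 65% or more; inconclusive means mean lower but half the replicates past it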;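 further: pathway switched on by Shh-conditioned medium diluted 1 in 25 in low serum; 100 nL library stock added to about 40 µL; 0% = median of neutral wells and 100% = positive control level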
# PD-1 reverse act: activators reversing PD-1 mediated T-cell inhibition, primary screen, luminescence, primary human CD4 T cells, PD-L1 beads; CellTiter-Glo 96 h; activation, % (no concentration beside the values); 29,000 tested, under 10 active;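 active means replicate mean of 50% or more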;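 further: 0% = median vehicle wells and 100% = positive control; 100 nL library stock added to about 50 µL; numbers are from one replicate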
# MITF inhib: inhibitors of MITF, primary screen, MITF inhibitor project, cell-based, luminescence | TRPM1 promoter luciferase, 24 h | inhibition, % (test concentration not listed) | 0.28% of 37,000 active | AID 2240, 2010;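 active means most replicates at 85% or more, or half of them and the mean; inconclusive means half reach 85% but not the mean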;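 further: human melanocyte line stably carrying TRPM1 promoter luciferase reporter; 0% = vehicle wells and 100% = a positive control; the first replicate is given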
# * = called active by the depositor; ? = inconclusive; / = not tested or not shown. A portion of the library. The share of hits here may be higher or lower than overall.
SMILES,YB-1 expr inh,Hedgehog inh,PD-1 reverse act,MITF inhib
Cc1noc(C)c1NC(=O)Nc1ccc2c(c1)C(=O)N([C@H](C)CO)C[C@@H](C)[C@@H](CN(C)C(=O)Nc1ccc(C(F)(F)F)cc1)O2,0.045,2,0.1,-2
O=C(CSc1nnnn1-c1ccccc1)Nc1ccc(Cl)cc1O,/,/,-3.8,42
CN(CC(=O)Nc1ccccc1C(N)=O)S(=O)(=O)c1cc(Cl)ccc1Cl,/,/,-1.4,-8
Cc1cc(C(=O)Nc2cccc3c2O[C@H](CN(C)S(=O)(=O)c2ccccc2)[C@@H](C)CN([C@H](C)CO)C3=O)n(C)n1,0.2,-11,1.4,-1
Cc1ccc(S(=O)(=O)Nc2ccc3c(c2)CC(=O)N([C@H](C)CO)C[C@@H](C)[C@H](CN(C)Cc2ccncc2)O3)cc1,-0.4,-7,-0.9,-4
C[C@H](CO)N1C[C@H](C)[C@H](CN(C)C(=O)Nc2ccc(C(F)(F)F)cc2)Oc2c(NC(=O)Nc3ccc(C(F)(F)F)cc3)cccc2C1=O,-0.17,3,-7.7,14
C[C@@H]1CN([C@H](C)CO)C(=O)c2cc(NC(=O)NC3CCCCC3)ccc2O[C@@H]1CN(C)C(=O)Nc1ccccc1,-0.17,-29,-0.5,4
CC1(C)CC[C@]2(C(=O)O[C@@H]3O[C@H](CO)[C@@H](O)[C@H](O)[C@H]3O)CC[C@]3(C)C(=CCC4[C@@]5(C)CC[C@H](O[C@@H]6O[C@H](C(=O)O)[C@@H](O[C@@H]7O[C@H](CO)[C@@H](O)[C@H](O)[C@H]7O)[C@H](O)[C@H]6O[C@@H]6O[C@H](CO)[C@@H](O)[C@H](O)[C@H]6O)C(C)(C)C5CC[C@]43C)C2C1 (stereo partly specified),-0.43,-7,1.5,-5
C[C@@H]1CN([C@@H](C)CO)C(=O)c2cccc(NC(=O)Nc3ccc(C(F)(F)F)cc3)c2O[C@H]1CN(C)Cc1ccc(Oc2ccccc2)cc1,0.054,-27,/,26
CN(CC(=O)Nc1ccc(Br)cc1)S(=O)(=O)c1ccc2ccccc2c1,/,/,-0.9,11
Cc1cc(NS(=O)(=O)c2ccc(Nc3nc(-c4ccc(O)cc4)cs3)cc2)no1,/,/,-0.9,8
O=C(CC1Nc2cccc3cccc(c23)NC1=O)Nc1cccc([N+](=O)[O-])c1 (stereo unspecified),/,/,-2.8,58
C[C@@H]1CCCCO[C@H](CN(C)Cc2ccncc2)[C@@H](C)CN([C@H](C)CO)C(=O)c2cc(NC(=O)Cc3ccccc3)ccc2O1,-0.24,/,/,-17
COc1cc(CNC2CCCC2)ccc1OCC(N)=O,/,/,1.3,9
CC1(C)CC(N=Cc2ccco2)CC(C)(C)N1,-0.3,/,0.8,-3
C[C@H]1CN([C@@H](C)CO)C(=O)c2cc(NC(=O)CCCCCC(=O)Nc3ccccc3N)ccc2O[C@@H]1CN(C)C(=O)Nc1ccc2c(c1)OCO2,0.73,/,1.2,-15
COC(=O)c1sccc1NC(=O)CSc1nnnn1-c1ccccc1C,/,/,0.6,-18
C[C@H](CO)N1C[C@H](C)[C@H](CN(C)Cc2ccccc2)Oc2ccc(NS(=O)(=O)c3ccccc3)cc2C1=O,0.056,16,-0.4,-2
Cc1noc(C)c1S(=O)(=O)N(C)C[C@@H]1Oc2c(NC(=O)c3cnccn3)cccc2C(=O)N([C@H](C)CO)C[C@@H]1C,-1,-23,0.5,-17
C[C@@H]1CN([C@H](C)CO)C(=O)Cc2cc(NS(=O)(=O)c3cccs3)ccc2O[C@@H]1CN(C)S(=O)(=O)c1ccc(F)cc1,-0.12,5,-1.9,-14
O=C(/C=C/CCc1ccccc1)CCc1ccccc1,0.16,-3,-3.4,1
C[C@@H]1CN([C@@H](C)CO)C(=O)c2cc(NC(=O)Cn3cnnn3)ccc2O[C@H]1CN(C)Cc1ccncc1,-0.14,/,0.8,-8
COc1ccc(/C=C/c2cc(O)cc(O[C@@H]3O[C@H](CO)[C@@H](O)[C@H](O)[C@H]3O)c2)cc1O,0.086,47,6.0,1
Cc1ccc(S(=O)(=O)Nc2ccc3c(c2)C(=O)N([C@H](C)CO)C[C@H](C)[C@H](CN(C)Cc2ccncc2)OCCCC[C@@H](C)O3)cc1,-0.063,-29,/,-32
COc1ccc(NC(=O)Nc2ccc3c(c2)C(=O)N([C@@H](C)CO)C[C@H](C)[C@H](CN(C)C(=O)Nc2ccc(C(F)(F)F)cc2)O3)cc1,0.08,18,-2.4,2

# Looked up by compound from the list above (seven):
SMILES,YB-1 expr inh,Hedgehog inh,PD-1 reverse act,MITF inhib
O=C(/C=C/CCc1ccccc1)CCc1ccccc1,0.16,-3,-3.4,1
CN(CC(=O)Nc1ccccc1C(N)=O)S(=O)(=O)c1cc(Cl)ccc1Cl,/,/,-1.4,-8
O=C(CC1Nc2cccc3cccc(c23)NC1=O)Nc1cccc([N+](=O)[O-])c1 (stereo unspecified),/,/,-2.8,58
Cc1cc(NS(=O)(=O)c2ccc(Nc3nc(-c4ccc(O)cc4)cs3)cc2)no1,/,/,-0.9,8
C[C@@H]1CCCCO[C@H](CN(C)Cc2ccncc2)[C@@H](C)CN([C@H](C)CO)C(=O)c2cc(NC(=O)Cc3ccccc3)ccc2O1,-0.24,/,/,-17
COc1ccc(NC(=O)Nc2ccc3c(c2)C(=O)N([C@@H](C)CO)C[C@H](C)[C@H](CN(C)C(=O)Nc2ccc(C(F)(F)F)cc2)O3)cc1,0.08,18,-2.4,2
C[C@@H]1CN([C@H](C)CO)C(=O)Cc2cc(NS(=O)(=O)c3cccs3)ccc2O[C@@H]1CN(C)S(=O)(=O)c1ccc(F)cc1,-0.12,5,-1.9,-14

# Additional results:
SMILES,YB-1 expr inh,Hedgehog inh,PD-1 reverse act,MITF inhib
COc1cc(OC)c(NC(=O)CSc2nc3ccc([N+](=O)[O-])cc3s2)cc1Cl,/,/,-1.9,-11
COc1ccc(CCn2c(=S)[nH]c3cc(C(F)(F)F)ccc32)cc1OC,0.23,51,-3.0,4
CS(=O)(=O)c1ccc(C(=O)Nc2ccccc2Cl)cc1,-0.56,?,-2.8,-53
O=C(c1ccc(Br)cc1)N1CCC(Cc2ccccc2)CC1,0.14,-8,2.5,10
CCc1ccccc1NC(=O)CN(C)S(=O)(=O)c1c(C)cc(C)cc1C,/,/,-0.5,-10
C[C@@H]1CN([C@H](C)CO)C(=O)Cc2cc(NS(=O)(=O)c3ccc(Cl)cc3)ccc2O[C@@H]1CN(C)Cc1ccncc1,-0.22,12,0.6,-10
NC(=O)CSc1nc2c(c(=O)n1Cc1ccccc1)C1(CCCCC1)Cc1ccccc1-2,/,/,-0.8,6
COC1=CC(=O)O[C@@H](CCc2ccccc2)[C@@H]1O,0.024,-10,3.9,10
C[C@H]1CN([C@@H](C)CO)C(=O)Cc2cc(NC(=O)C3CC3)ccc2O[C@H]1CN(C)S(=O)(=O)c1ccc(Cl)cc1,0.42,30,0.1,16
CC(C)NC(=O)N(C)C[C@@H]1Oc2c(NS(=O)(=O)c3ccc(F)cc3)cccc2C(=O)N([C@H](C)CO)C[C@H]1C,-0.069,-14,0.4,-5
Cc1noc(C)c1S(=O)(=O)Nc1ccc2c(c1)CC(=O)N([C@H](C)CO)C[C@@H](C)[C@@H](CN(C)Cc1ccc(-c3ccccc3)cc1)O2,-0.11,23,/,-12
C[C@@H]1CCCCO[C@@H](CN(C)C)[C@@H](C)CN([C@H](C)CO)C(=O)c2cc(NC(=O)CCCCCC(=O)Nc3ccccc3N)ccc2O1,-0.53,/,1.2,-6
C[C@H](CO)N1C[C@H](C)[C@@H](CN(C)Cc2ccc(C(F)(F)F)cc2)Oc2c(NC(=O)Nc3ccccc3)cccc2C1=O,0.6,-31,/,20
CC(=O)NC(c1ccccc1)c1ccccc1,-0.62,-38,1.0,-6
COc1ccc(S(=O)(=O)N(C)C[C@H]2Oc3ccc(NS(=O)(=O)c4cccs4)cc3C(=O)N([C@H](C)CO)C[C@H]2C)cc1,0.24,/,1.0,-4
COc1ccc(NC(=O)N(C)C[C@@H]2Oc3c(NS(=O)(=O)c4ccc(C)cc4)cccc3C(=O)N([C@H](C)CO)C[C@@H]2C)cc1,-1.3,-37,-0.6,13
Cc1c(NC(=O)COc2ccc(I)cc2)cccc1C(=O)O,/,/,0.7,-88
C[C@@H]1CN([C@@H](C)CO)C(=O)c2cc(NC(=O)CCCCCC(=O)Nc3ccccc3N)ccc2O[C@H]1CN(C)S(=O)(=O)c1cn(C)cn1,-0.12,/,2.2,-17
Oc1ccc([C@@H]2Oc3cc(O)cc(O)c3C[C@@H]2O)cc1,0.13,28,-0.4,16
Cc1ccc(S(=O)(=O)Nc2ccc3c(c2)C(=O)N([C@@H](C)CO)C[C@H](C)[C@@H](CN(C)Cc2ccncc2)O3)cc1,0.21,/,/,-6
COc1ccc(CN(C)C[C@H]2Oc3ccc(NC(=O)Nc4ccc(C(F)(F)F)cc4)cc3C(=O)N([C@@H](C)CO)C[C@@H]2C)cc1,0.0038,0,-3.3,-5
O=c1[nH]c2ccccc2c(=O)n1CCNCc1ccccc1,0.22,1,1.2,-16
CCOC(=O)c1ccc(Nc2nnc(CSc3nc(C)cc(C)n3)s2)cc1,/,/,-0.2,10
CCOC(=O)c1ccc(NC(=O)CC2NCCNC2=O)cc1 (stereo unspecified),/,/,2.4,-15
C[C@H]1CN([C@@H](C)CO)C(=O)Cc2cc(NC(=O)CCC(F)(F)F)ccc2O[C@@H]1CN(C)CC1CC1,0.032,-14,0.6,5
# Next records
SMILES,YB-1 expr inh,Hedgehog inh,PD-1 reverse act,MITF inhib
CCOC(=O)c1oc2c(C)c(O)ccc2c(=O)c1-c1nncn1-c1ccccc1,/,/,0.8,-5
CCOc1ccc(NC(=O)C(C)n2nc(C)c([N+](=O)[O-])c2C)cc1 (stereo unspecified),/,/,0.7,-3
CCOC(=O)c1ccc(NC(=O)CSc2nc3sc4c(c3c(=O)n2C)CCCC4)cc1,/,/,1.3,41
C[C@H]1CN([C@@H](C)CO)C(=O)c2cc(NC(=O)CCC(F)(F)F)ccc2O[C@@H]1CN(C)C(=O)Nc1cccc2ccccc12,0.18,-17,0.0,3
C[C@@H]1CCCCO[C@H](CN(C)S(C)(=O)=O)[C@@H](C)CN([C@H](C)CO)C(=O)c2cc(NC(=O)CCC(F)(F)F)ccc2O1,0.0026,-13,/,-3
COc1cc(OC)c(C(=O)NCc2ccccn2)cc1OC,/,/,0.7,-14
C[C@@H]1CN([C@H](C)CO)C(=O)c2cc(N(C)C)ccc2O[C@@H]1CN(C)C(=O)NC1CCCCC1,0.096,8,/,8
CC(C)NC(=O)N(C)C[C@H]1Oc2ccc(NS(=O)(=O)c3cn(C)cn3)cc2CC(=O)N([C@@H](C)CO)C[C@@H]1C,-0.24,4,4.2,-6
C[C@H]1CN([C@@H](C)CO)C(=O)c2cc(NC(=O)CCC(F)(F)F)ccc2O[C@@H]1CN(C)S(=O)(=O)c1ccc(F)cc1,-0.18,-46,/,-4
CNC[C@H]1Oc2c(NC(=O)C3CCCCC3)cccc2C(=O)N([C@H](C)CO)C[C@@H]1C,0.22,-39,1.9,-2
C[C@@H]1CN([C@H](C)CO)C(=O)c2cccc(NC(=O)C3CCCCC3)c2O[C@H]1CN(C)Cc1ccc(-c2ccccc2)cc1,0.41,-20,2.0,9
COc1ccc(S(=O)(=O)Nc2cccc3c2O[C@@H](CN(C)Cc2ccncc2)[C@@H](C)CN([C@@H](C)CO)C3=O)cc1,0.56,-18,0.4,-1
C[C@@H]1CN([C@@H](C)CO)C(=O)c2cc(N(C)C)ccc2O[C@H]1CN(C)Cc1ccccc1,-0.27,-22,-0.6,6
Cc1ccc(S(=O)(=O)N(C)CC(=O)Nc2ccncc2)cc1,/,/,2.4,29
C[C@H]1CN([C@@H](C)CO)C(=O)c2cc(NC(=O)Nc3ccc(C(F)(F)F)cc3)ccc2O[C@H]1CN(C)Cc1ccncc1,0.1,43,2.4,36
CC(C)NC(=O)N(C)C[C@H]1Oc2c(NC(=O)CCCCCC(=O)Nc3ccccc3N)cccc2C(=O)N([C@H](C)CO)C[C@H]1C,-0.07,/,0.9,0
C[C@H]1CN([C@@H](C)CO)C(=O)Cc2cc(NC(=O)Nc3cccc4ccccc34)ccc2O[C@@H]1CN(C)Cc1ccc(Cl)c(Cl)c1,0.38,-2,2.4,16
O=C(CCN1C(=O)C2CC=CCC2C1=O)N1CCN(c2ccccn2)CC1 (stereo unspecified),-0.094,16,-0.3,2
Cc1[nH]c2ccccc2c1C(c1ccccc1)N1CCN(C)CC1 (stereo unspecified),-0.27,?,-6.9,56
C[C@@H]1CN([C@@H](C)CO)C(=O)c2cc(NC(=O)Cc3cn(C)c4ccccc34)ccc2O[C@@H]1CN(C)Cc1ccc(Cl)c(Cl)c1,1,/,-3.9,40
Cc1ccc(-n2c(SCC(=O)Nc3ccc(C)c(Cl)c3)nnc2-c2ccccc2O)c(C)c1,/,/,0.4,30
COc1cccc(S(=O)(=O)NCc2ccc(C(=O)Nc3ccc(Cl)cc3)cc2)c1,/,/,-0.9,42
